High-throughput results: PubChem BioAssay, several laboratories
RecA splice inh = Mtb RecA intein splicing inhibitors, primary screen, biochemical, fluorescence, HTS | Protein RecA (Mycobacterium tuberculosis (strain ATCC 25618 / H37Rv)), P9WHJ3 | cell-free RecA intein splicing | inhibition, %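 (about 9 µM by stock and volumes)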 | 290,000 compounds, 0.75% hits | AID 2221, 2009; in the data active = inhibition above about 30%; inconclusive = no clear call, values can overlap the other calls;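 also: 0% = vehicle wells and 100% = reference inhibitor control wells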
Target sequence (P9WHJ3 whole entry, looked up, canonical isoform): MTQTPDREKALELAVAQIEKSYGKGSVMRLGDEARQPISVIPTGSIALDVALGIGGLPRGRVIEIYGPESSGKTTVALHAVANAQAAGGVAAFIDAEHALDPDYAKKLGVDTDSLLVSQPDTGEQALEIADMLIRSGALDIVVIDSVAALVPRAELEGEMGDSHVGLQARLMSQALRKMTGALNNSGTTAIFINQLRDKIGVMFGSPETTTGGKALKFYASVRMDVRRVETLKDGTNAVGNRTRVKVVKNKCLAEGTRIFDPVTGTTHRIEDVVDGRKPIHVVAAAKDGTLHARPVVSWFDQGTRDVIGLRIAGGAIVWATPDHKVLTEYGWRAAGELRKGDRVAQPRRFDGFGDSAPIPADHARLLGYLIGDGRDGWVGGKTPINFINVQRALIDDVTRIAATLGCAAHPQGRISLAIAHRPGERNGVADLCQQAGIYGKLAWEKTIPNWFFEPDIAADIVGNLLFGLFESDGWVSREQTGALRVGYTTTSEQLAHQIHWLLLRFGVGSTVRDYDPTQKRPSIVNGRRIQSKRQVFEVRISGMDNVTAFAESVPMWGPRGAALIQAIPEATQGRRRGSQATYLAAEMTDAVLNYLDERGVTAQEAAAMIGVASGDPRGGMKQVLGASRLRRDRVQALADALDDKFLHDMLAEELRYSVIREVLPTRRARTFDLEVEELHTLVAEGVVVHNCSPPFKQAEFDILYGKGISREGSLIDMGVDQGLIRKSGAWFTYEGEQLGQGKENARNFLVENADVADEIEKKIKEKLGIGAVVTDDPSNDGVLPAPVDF
Mtb bLac sens = beta-lactam sensitization of Mtb H37Rv, H37Rv; M. tuberculosis H37Rv growth with meropenem, percent inhibition; hits of this screen are not shown here; inhibition, % at 25 µM; 330,000 compounds, 0.27% hits; AID 434955, 2010;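 active = about 74% or more and at least 40 points above the plate without the antibiotic, then above 30% in a dose series; inconclusive = first-round hits that could not be retested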;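 also: growth measured after seven days incubation then overnight dye step; 0% = bacteria only wells and 100% = bacteria with antibiotic; twin plates without the antibiotic show which effects depend on it; some results filed as inactive read as strong as hits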
Active calls of the source: *; ? = inconclusive; / = not tested or not shown. This is a subset; the hit share may differ from the screen's.

Start of the data: the first 3 records, ahead of the listing:
Under each structure: RecA splice inh	Mtb bLac sens
1. CN(Cc1ccon1)C(=O)C1CCC(=O)N(CCc2ccc(Cl)cc2)C1 (stereo not given)
    4.5	/
2. COCC(=O)N1CCC(Oc2ccc(C(=O)N3CCN(C)C[C@@H]3C(C)C)cc2)CC1
    -3.8	/
3. CCOc1cccc(/C=N/N=C/c2cccc(OCC)c2O)c1O
    -1.2	/

The whole of this part, previewed entries included:
Under each structure: RecA splice inh	Mtb bLac sens
1. CN(Cc1ccon1)C(=O)C1CCC(=O)N(CCc2ccc(Cl)cc2)C1 (stereo not given)
    4.5	/
2. COCC(=O)N1CCC(Oc2ccc(C(=O)N3CCN(C)C[C@@H]3C(C)C)cc2)CC1
    -3.8	/
3. CCOc1cccc(/C=N/N=C/c2cccc(OCC)c2O)c1O
    -1.2	/
4. CC(C)N(C(=O)N1CCN(c2ccnc3cc(Cl)ccc23)CC1)C(C)C
    4.9	/
5. COc1cc(C(=O)Oc2cccnc2)cc(OC)c1OC
    3.7	/
6. COc1ccccc1-n1c(-c2ccccc2)nc2ccccc2c1=O
    -5.1	/
7. CCOC(=O)c1sc(NC(=O)CN2CCN(c3ccc(OC)cc3)CC2)nc1C
    1.7	/
8. CC(C)[C@H](NC(=O)C1CCC(CNC(=O)[C@@H]2CCCN2C(=O)OC(C)(C)C)CC1)C(=O)O (stereo not given in full)
    0.9	/
9. Nc1ccc(N=Nc2ccccc2O)c(N)c1
    6.7	/
10. NC(=O)c1ccc(NC(=O)COc2cccc3c2CCNC3=O)cc1
    10	/
11. C[C@@H]1CC[C@]2(C(=O)O)CC[C@]3(C)C(=CCC4[C@@]5(C)CC[C@H](O)[C@@](C)(C(=O)O)C5CC[C@]43C)C2[C@]1(C)O (stereo not given in full)
    /	-2
12. COc1ccc([C@H]2CC(=O)C=C(c3cccc(OC)c3)C2)cc1
    /	28
13. O=C1OC[C@@H]2CCCN2C(=O)[C@H](CC(=O)N(CCO)Cc2ccccc2)C/C=C\C[C@H]1Cc1ccc(F)cc1
    /	-8
14. CC(C)c1ccc(S(=O)(=O)N2CCN(CC(=O)Nc3ccc(Cl)cc3F)CC2)cc1
    /	0
15. CC(=O)N1CCN(C(=S)NC(=O)c2ccc(F)cc2)CC1
    /	-3
16. Cc1ccc(CN(C)C(=O)COC(=O)CSc2ccc(C(N)=O)cc2[N+](=O)[O-])cc1
    /	6
17. COc1ccc(CNC(=O)C2CCN(C(=O)c3ccc(F)cc3)CC2)cc1OC
    /	-2
18. COc1cc(C=NNC(=O)Cn2nc(C)cc2C)ccc1OC(=O)C1CC1
    /	17
19. COc1ccc(N2CC(C(=O)Nc3ccc(S(=O)(=O)Nc4nccs4)cc3)CC2=O)c(OC)c1 (stereo not given)
    /	2
20. O=C(Nc1ccc(Nc2ccccc2)cc1)c1ccc(Cl)cc1
    /	28
21. C=CCOc1ccccc1OCC(O)CNC(C)C (stereo not given)
    /	-2
22. O=C(COC(=O)Cc1cccc(C(F)(F)F)c1)NCc1ccco1
    /	-7
23. COc1ccc2c3n([n+]([O-])c2c1)CCN=C3c1cc(Cl)c(N)c(Cl)c1
    /	76
24. CN(C)S(=O)(=O)c1ccc2oc(SCC(=O)c3c(N)n(C4CC4)c(=O)[nH]c3=O)nc2c1
    /	2
25. O=c1c2ccccc2nc2sc(Nc3cccc(Cl)c3)nn12
    /	3
26. N#Cc1ccccc1COC(=O)CCN=C1NS(=O)(=O)c2ccccc21
    /	-4
27. N#CCSc1ccccc1NC(=O)CN1C(=O)C(=O)N(Cc2ccccc2)C1=O
    /	1
28. COc1ccc(/C=C/C(=O)NC(=S)N2C[C@H]3C[C@H](C2)c2cccc(=O)n2C3)cc1
    /	-1
29. Nc1ncnc2c1C(c1ccccc1)c1c(ccc3ccccc13)O2 (stereo not given)
    /	4
30. CN(Cc1ccccc1)C(=O)c1ccc(COc2ccccc2)cc1
    /	-3

A draw from above in order of molecular weight, high to low.
Under each structure: RecA splice inh	Mtb bLac sens
1. CN(Cc1ccon1)C(=O)C1CCC(=O)N(CCc2ccc(Cl)cc2)C1 (stereo not given)
    4.5	/
26. N#Cc1ccccc1COC(=O)CCN=C1NS(=O)(=O)c2ccccc21
    /	-4
25. O=c1c2ccccc2nc2sc(Nc3cccc(Cl)c3)nn12
    /	3
29. Nc1ncnc2c1C(c1ccccc1)c1c(ccc3ccccc13)O2 (stereo not given)
    /	4
12. COc1ccc([C@H]2CC(=O)C=C(c3cccc(OC)c3)C2)cc1
    /	28
21. C=CCOc1ccccc1OCC(O)CNC(C)C (stereo not given)
    /	-2

For convenience, part of the list above.
Under each structure: RecA splice inh	Mtb bLac sens
29. Nc1ncnc2c1C(c1ccccc1)c1c(ccc3ccccc13)O2 (stereo not given)
    /	4
30. CN(Cc1ccccc1)C(=O)c1ccc(COc2ccccc2)cc1
    /	-3

Next section
Under each structure: RecA splice inh	Mtb bLac sens
31. COc1cc(C=O)ccc1OC(=O)c1cccnc1
    /	-3
32. O=C(NCC(=O)N1CCN(S(=O)(=O)c2ccc3c(c2)OCCO3)CC1)c1ccccc1F
    /	-2
33. COc1ccccc1NC(=O)CSc1nnc(NC(=O)C2CC2)s1
    /	-6
34. COc1ccccc1OCCNC(=O)CCS(=O)(=O)c1ccccc1
    /	-5
35. Cc1cccc(C(C)C)c1NC(=O)c1ccc(OCC2CCCO2)cc1 (stereo not given)
    /	0
36. CC1=C(C(=O)O)N2C(=O)C(NC(=O)c3ccc(F)cc3)C2SC1 (stereo not given)
    /	-13
37. Oc1ccc(Cl)cc1CNCc1ccc(C(F)(F)F)cc1
    /	24
38. CCCNC(=O)C(Cc1cccc(OC)c1)NC(=O)c1ccc(C(C)(C)C)cc1 (stereo not given)
    /	1
39. Cc1nn(-c2ccccc2)c(C)c1C(=O)OCC(=O)Nc1cccc(S(N)(=O)=O)c1
    /	-10
40. COc1cc(OC)cc(C(=O)NNC(=O)c2cc(S(=O)(=O)N3CCOCC3)ccc2F)c1
    /	-7
41. O=C1N[C@H](Cc2ccccc2)COC(=O)[C@@H](Cc2ccc(F)cc2)C/C=C\C[C@H]1CC(=O)N(CCO)Cc1ccccc1
    /	-4
42. CN(Cc1ccccc1)C(=O)c1cccc(NC(=O)Cc2cccc([N+](=O)[O-])c2)c1
    /	10
43. CCCNC(=O)CNC(=O)c1ccc(C#N)cc1
    /	0
44. COCCN(CC(=O)Nc1cccc(C)c1C)C(=O)C1(c2ccc(Cl)cc2)CCC1
    /	-6
45. Cc1ccc(S(=O)(=O)N2CCOCC2)cc1C(=O)OCC(=O)N(Cc1ccccc1)C(C)C
    /	-10
46. CC1CC(C)(C)CC2(C1)NC(=O)N(CC(=O)Nc1ccc(N3CCCCC3)cc1)C2=O (stereo not given)
    /	-4
47. CN1CCC(N(C)C(=O)c2cc(S(=O)(=O)N3CCOCC3)ccc2Cl)CC1
    /	-2
48. Cc1cc(NC(=O)COC(=O)c2ccccc2NCCO)no1
    /	0
49. Cc1cc(S(=O)(=O)Nc2ccc(C(=O)NCC(c3ccccc3)N(C)C)cc2)ccc1F (stereo not given)
    /	-5
50. CCc1ccccc1NC(=O)[C@@H]1CCC(=O)N1C1OC(=O)c2ccccc21 (stereo not given in full)
    /	-5
51. COc1ccc(NC(=O)COc2ccc(C(=O)NCc3cccnc3)cc2OC)cc1
    /	-10
52. O=C(OCC(=O)N1CCC(Cc2ccccc2)CC1)c1ccccc1O
    /	94
53. CC(=O)Nc1sc(C)c(C)c1C(=O)OCC(=O)NCc1ccc(Cl)cc1
    /	0
54. Nc1ccccc1-c1nnc(SCC(=O)Nc2ccccc2OC(F)F)[nH]c1=O
    /	-5
55. CCCCC/C=C/C1=CC(=O)C[C@H](c2ccc(OC)c(OC)c2)C1
    /	0
56. O=C(NN=Cc1ccccc1C(=O)O)c1cccc(S(=O)(=O)Nc2cccc(C(F)(F)F)c2)c1
    /	-4
57. Cc1cccc(OCc2nnc(-c3ccc(F)cc3)o2)c1
    /	31
58. CCC(C)c1ccccc1N1CC(C(=O)Nc2ccc(N3CCOCC3)cc2)CC1=O (stereo not given)
    /	-2
59. Cc1cccc(NC(=O)COC(=O)c2ccc(C)c(S(=O)(=O)N3CCCCC3)c2)c1
    /	-5
60. O=C(COC(=O)C1CC2C=CC1C2)Nc1ccccc1[N+](=O)[O-] (stereo not given)
    /	6

61. COc1cc(OC)cc(C(=O)NC(C(=O)NNC(=O)c2ccc(C)cc2)C(C)C)c1 (stereo not given)
62. O=C(NCc1ccccn1)c1cccc(NS(=O)(=O)c2ccc(Br)cc2)c1
63. O=C(Nc1ccc(Cl)cc1Cl)c1ccc2c(c1)OCCO2
64. Cc1ccc(N2C(=NC(=O)c3ccccc3)SC3CS(=O)(=O)CC32)cc1 (stereo not given)
65. CCn1ncc(Cl)c1C(=O)Nc1ccc2c(c1)CCC2
66. COc1ccc(NC(=O)COC(=O)Cc2c[nH]c3ccccc23)cc1Cl
67. COc1ccc(C(=O)C(C)OC(=O)c2nc3nccc(C)n3n2)cc1 (stereo not given)
68. COC(=O)C1=C(c2cccc(OCc3ccccc3)c2)C[C@@H]2CC[C@H]1N2C(=O)NCCN1CCOCC1
Compound,61,62,63,64,65,66,67,68
RecA splice inh,/,/,/,/,/,/,/,/
Mtb bLac sens,3,-3,7,5,?,-7,5,2

69. O=C(COC(=O)c1ccc(Cl)nc1)Nc1ccc2c(c1)OCCO2
70. Cc1ccc(OCC(=O)NC2CCCC(C)C2C)c([N+](=O)[O-])n1 (stereo not given)
71. O=C1C=C(c2ccc3cc[nH]c3c2)C[C@@H](c2ccc3c(c2)OCO3)C1
72. Cc1ccnc(NC(=O)c2cccc(S(=O)(=O)Nc3ccc(C)cc3C)c2)c1
73. C[C@H]1CN([C@@H](C)CO)C(=O)c2cc(NC(=O)Cc3ccccc3)ccc2O[C@H]1CN(C)Cc1ccccc1
74. CC(C)Cn1c(-c2cccc(S(=O)(=O)N3CCOCC3)c2)n[nH]c1=S
75. CCC1Nc2ncnc(N3CCN(c4ccccn4)CC3)c2N(Cc2ccc(Br)cc2)C1=O (stereo not given)
76. Cc1cc(NS(=O)(=O)c2ccc(NC(=O)COc3ccc(C#N)cc3)cc2)nc(C)n1
Compound,69,70,71,72,73,74,75,76
RecA splice inh,/,/,/,/,/,/,/,/
Mtb bLac sens,-8,4,52,-11,1,4,-1,4

77. CC(C)C(NC(=O)c1ccc(Cl)cc1Cl)C(=O)N1CCC1 (stereo not given)
78. O=C(/C=C/c1cc(Br)ccc1F)OCC(=O)N1CCOCC1
79. O=C(NNC(=O)c1ccc(Br)o1)c1csc(N2CCOCC2)n1
80. CCc1cc(C(=O)N2CCN(S(=O)(=O)c3cc(C)ccc3C)CC2)sc1C
81. Cc1ccc(S(=O)(=O)N2CCN(C(=O)CCn3nc(C)c(C)c3C)CC2)cc1C
82. CCOc1ccc(NS(=O)(=O)c2ccc(C(=O)NNC(=O)c3ccccc3O)cc2)cc1
83. CCCCOc1ccc(C(=O)NCC(=O)NCC(c2cccs2)N2CCOCC2)cc1 (stereo not given)
84. Cc1cccc(NC(=O)[C@@H]2CCCN2C2=NS(=O)(=O)c3ccccc32)c1C
Compound,77,78,79,80,81,82,83,84
RecA splice inh,/,/,/,/,/,/,/,/
Mtb bLac sens,6,-2,24,-3,-5,0,0,-4

85. CCN(C[C@H]1N[C@@](C)(C(=O)OC)[C@H]2C(=O)N(C)C(=O)[C@@H]12)C(=O)c1ccc(C)cc1
86. CC1CCCN(C(=O)CN2C(=O)c3ccccc3S2(=O)=O)C1 (stereo not given)
87. CC(C)[C@H](CN1CCC[C@H]1CN1C(N)=NC[C@@H]1Cc1ccccc1)N1C[C@@H](Cc2ccccc2)N(CCc2ccc(Cl)c(Cl)c2)C1=N
88. COc1ccc(NC(=O)c2cc3cc(C)ccc3n2C)c(OC)c1
89. COCCn1c(SCC(=O)N2CCOCC2)nc2ccccc2c1=O
90. C=CC[C@@H](CC(=O)N(CCO)Cc1ccccc1)C(=O)N[C@H](COC(=O)[C@@H](CC=C)CC(=O)OC(C)(C)C)c1ccccc1
91. COc1ccc(C(=O)NC(=S)NNC(=O)c2ccccc2C)cc1
92. Cc1cccc(C)c1NC(=O)CN1C(=O)NC(C)(C2CC2)C1=O (stereo not given)
Compound,85,86,87,88,89,90,91,92
RecA splice inh,/,/,/,/,/,/,/,/
Mtb bLac sens,-7,2,100,7,-4,10,89,-3

93. CC(=O)c1ccc(S(=O)(=O)N2CCN(C(=O)c3ccc(-n4cncn4)c([N+](=O)[O-])c3)CC2)cc1
94. COC(=O)CNC(=O)CN(c1ccc(OC)cc1OC)S(=O)(=O)c1ccccc1
95. CCOC(=O)C1=C(COC(=O)CCC(=O)c2ccc(C)cc2)NC(=O)NC1C (stereo not given)
96. COc1ccc(Cl)cc1NC(=O)COc1ccc2c(c1)OCO2
97. CCN(C[C@H]1N[C@@](CC)(C(=O)OC)[C@H]2C(=O)N(C)C(=O)[C@@H]12)C(=O)Nc1ccc(C(F)(F)F)cc1
98. COC(=O)C1=C(C)N(Cc2ccccc2)C(=NCCc2c[nH]c3ccccc23)N[C@H]1c1cccc(C(F)(F)F)c1
99. COc1ccc(NC(=O)Cc2ccc(C)cc2)cc1S(=O)(=O)N1CCCCC1
100. CCc1ccc(N2CC(C(=O)OCC(=O)Nc3ccc(C#N)cc3)CC2=O)cc1 (stereo not given)
Compound,93,94,95,96,97,98,99,100
RecA splice inh,/,/,/,/,/,/,/,/
Mtb bLac sens,0,0,-7,1,-6,100,0,-3
